DUX4 txn inh = inhibitors of DUX4-driven ZSCAN4 reporter expression, primary screen, 293T cells, Gaussia and Italica luciferase; 293T-iDUX4 ZSCAN4-Gaussia luciferase reporter, 24 h; active compounds read low; activity change, negative = inhibition, % (test concentration not listed); AID 1224904, 2016; 37,000 compounds, 0.8% hits;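 active = -10% or lower and over 25 points stronger than a control reporter; inconclusive = -10% or lower with a smaller gap; inactive = above -10%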;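 also: 0% = median of neutral control wells and -100% = median of positive control wells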
DUX4 txn inh difference = second read-out of DUX4 txn inh, no call of its own (marks repeat the call); Gaussia minus Italica difference, %; measured here: selective DUX4 reporter inhibition;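 worked out from the two reporters; negative = selective loss of the DUX4 reporter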
DUX4 txn inh control = second read-out of DUX4 txn inh, no call of its own (marks repeat the call); activity change, negative = inhibition, %; measured here: Italica tet-on control reporter;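 0 = neutral control and -100 = positive control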
Starred values were filed as active, the others as inactive; ? = inconclusive; nt = not tested or not shown. Not all compounds are listed (hit frequency here may not be typical).

SMILES	DUX4 txn inh	DUX4 txn inh difference	DUX4 txn inh control
CCNC(=O)[C@H]1[C@H](CO)[C@H]2Cn3c(ccc(-c4cccc(OC)c4)c3=O)[C@H]2N1C(=O)NC(C)C	-2	-2	-0.1
COc1ccc2c3c([nH]c2c1)[C@H](CO)N(CC1CC1)CC31CCN(S(=O)(=O)c2cccc(F)c2)CC1	?	nt	nt
CCS(=O)(=O)N1CCC2(CC1)CN(C(=O)c1ccc(F)cc1)[C@@H](CO)c1c2c2ccc(OC)cc2n1C	9	3	5.6
CO[C@H]1CC[C@@H]2CCOc3ccc(C#N)cc3C(=O)N(C)C[C@H](c3ccccc3)CC(=O)N(C)C[C@H]1O2	-1	-2	1.1
COc1ccc(S(=O)(=O)N(C)C[C@@H]2OCc3ccccc3-c3ccccc3C(=O)N([C@H](C)CO)C[C@@H]2C)cc1	?	nt	nt
O=C([C@H]1[C@H](CO)[C@H]2Cn3c(ccc(-c4ccc(F)cc4)c3=O)[C@H]2N1Cc1cocn1)N1CCOCC1	0	-3	2.7
COc1ccccc1-c1ccc2c(c1)O[C@H](CN(C)CC1CCOCC1)[C@@H](C)CN([C@H](C)CO)S2(=O)=O	6	4	2.0
Cc1noc(C)c1NC(=O)N(C)C[C@@H]1OCCCC[C@H](C)Oc2ccc(NC(=O)c3ccncc3)cc2C(=O)N([C@H](C)CO)C[C@H]1C	1	4	-2.6
O=S(=O)(Cc1ccccc1)NCC[C@@H]1CC[C@@H](NS(=O)(=O)c2ccc(F)cc2)[C@@H](CO)O1	6	-1	7.9
C[C@H](CO)N1C[C@H](C)[C@H](CN(C)C(=O)C2CCOCC2)Oc2ncc(/C=C/c3ccccc3)cc2C1=O	1	-1	1.3
CN1CCN(C(=O)C[C@@H]2CC[C@H]3[C@@H](COC[C@@H](O)CN3Cc3ccc4c(c3)OCO4)O2)CC1	5	-13	17
N#C[C@H]1[C@@H](c2ccc(C#CCC3CCCC3)cc2)[C@@H](CO)N1C(=O)c1ccccn1	4	-1	5.0
CNC(=O)C[C@H]1CC[C@H]2[C@@H](COC[C@@H](O)CN2C(=O)Nc2ccc(Cl)c(Cl)c2)O1	-2	-1	-1.0
Cc1noc(C)c1NC(=O)N(C)C[C@@H]1Oc2ccc(NC(=O)CCCCCC(=O)Nc3ccccc3N)cc2CC(=O)N([C@@H](C)CO)C[C@@H]1C	-5	-9	4.1
CN(C)Cc1cn(CC[C@H]2CC[C@@H](NC(=O)Cc3cccnc3)[C@H](CO)O2)nn1	4	7	-3.4
O=C(C[C@@H]1C[C@H]2c3cc(NC(=O)NC4CCCC4)ccc3O[C@H]2[C@@H](CO)O1)NCCN1CCCCC1	4	2	1.3
C[C@@H]1CN([C@@H](C)CO)C(=O)c2cc(NC(=O)Cc3ccccc3)ccc2O[C@@H](C)CCCCO[C@@H]1CN(C)Cc1ccncc1	-2	-7	4.5
C[C@H](CO)N1C[C@H](C)[C@@H](CN(C)C(=O)Nc2cccc(Cl)c2Cl)OCc2ccccc2-c2ccccc2C1=O	?	nt	nt
COCC(=O)N1[C@@H](C#N)[C@@H](c2ccc(C#CCC3CCCC3)cc2)[C@@H]1CO	-3	2	-4.8
C[C@@H]1CN([C@H](C)CO)C(=O)c2cc(C#CCN(C)C)cnc2O[C@H]1CN(C)C(=O)Nc1cccc(F)c1	-1	3	-4.5
COc1cccc(C#Cc2ccc([C@@H]3[C@H]4CN(C(=O)Cc5ccccc5)CC(=O)N4[C@H]3CO)cc2)c1	?	nt	nt
COCC#Cc1ccc([C@@H]2[C@@H](CO)N3C(=O)CN(C(=O)Nc4cc(F)ccc4F)C[C@@H]23)cc1	6	-4	10
COc1ccc(-c2cccc(-c3nc(C(=O)NCC(F)(F)F)cc4c3[C@@H](CCO)N([S@](=O)C(C)(C)C)C4)c2)cc1	3	5	-1.7
COc1cccc(S(=O)(=O)Nc2ccc3c(c2)[C@H]2C[C@H](CC(=O)N4CCCCC4)O[C@@H](CO)[C@H]2O3)c1	4	5	-1.0

The last 7 compounds of the section above open the next one.
SMILES	DUX4 txn inh	DUX4 txn inh difference	DUX4 txn inh control
C[C@H](CO)N1C[C@H](C)[C@@H](CN(C)C(=O)Nc2cccc(Cl)c2Cl)OCc2ccccc2-c2ccccc2C1=O	?	nt	nt
COCC(=O)N1[C@@H](C#N)[C@@H](c2ccc(C#CCC3CCCC3)cc2)[C@@H]1CO	-3	2	-4.8
C[C@@H]1CN([C@H](C)CO)C(=O)c2cc(C#CCN(C)C)cnc2O[C@H]1CN(C)C(=O)Nc1cccc(F)c1	-1	3	-4.5
COc1cccc(C#Cc2ccc([C@@H]3[C@H]4CN(C(=O)Cc5ccccc5)CC(=O)N4[C@H]3CO)cc2)c1	?	nt	nt
COCC#Cc1ccc([C@@H]2[C@@H](CO)N3C(=O)CN(C(=O)Nc4cc(F)ccc4F)C[C@@H]23)cc1	6	-4	10
COc1ccc(-c2cccc(-c3nc(C(=O)NCC(F)(F)F)cc4c3[C@@H](CCO)N([S@](=O)C(C)(C)C)C4)c2)cc1	3	5	-1.7
COc1cccc(S(=O)(=O)Nc2ccc3c(c2)[C@H]2C[C@H](CC(=O)N4CCCCC4)O[C@@H](CO)[C@H]2O3)c1	4	5	-1.0
CN1CCN(C(=O)C[C@H]2C[C@@H]3c4cc(NC(=O)C5CCC5)ccc4O[C@@H]3[C@H](CO)O2)CC1	4	1	3.1
O=C(c1ccccn1)N1C[C@@H]2[C@H](c3ccccc31)[C@H](CO)N2CC1CCCC1	-1	5	-5.8
O=C(c1ccc2c(c1)OCO2)N1CC(=O)N2[C@H](C1)[C@@H](c1ccc(C#Cc3ccccc3)cc1)[C@@H]2CO	?	nt	nt
COc1ccc(-c2ccc3n(c2=O)C[C@H]2[C@H](CO)[C@@H](C(=O)N4CCOCC4)N[C@@H]32)cc1	11	10	0.6
O=C(c1ccccn1)N1C[C@@H]2[C@H](c3ccccc31)[C@H](CO)N2C(=O)Nc1ccccc1	0	2	-1.5
CO[C@H]1CN(C)C(=O)c2cc(NS(=O)(=O)c3ccc(Oc4ccccc4)cc3)ccc2OC[C@H](C)NC[C@H]1C	-8	-6	-1.4
COc1ccc(NC(=O)Nc2ccc3c(c2)C(=O)N([C@@H](C)CO)C[C@H](C)[C@H](CN(C)Cc2ccncc2)OCCCC[C@@H](C)O3)cc1	5	5	0.2
CCNC(=O)C[C@@H]1CC[C@H]2[C@@H](COc3ccc(NC(C)=O)cc3C(=O)N2C)O1	2	-1	2.7
COCCNC(=O)C[C@@H]1C[C@@H]2c3cc(NC(=O)Nc4ccc(C(F)(F)F)cc4)ccc3O[C@@H]2[C@@H](CO)O1	-9	-8	-0.5
O=C(C[C@H]1CC[C@H]2[C@@H](COC[C@@H](O)CN2Cc2nccs2)O1)N1CCC(Cc2ccccc2)CC1	-8	-4	-3.7
C[C@@H]1CN([C@H](C)CO)C(=O)c2cc(Br)cnc2O[C@H]1CN(C)C(=O)C1CCCCC1	-3	-5	1.4
C/C=C/c1cnc2c(c1)C(=O)N([C@H](C)CO)C[C@H](C)[C@@H](CN(C)Cc1ccncc1)O2	-1	-1	-0.2
CN(C)CCCNC(=O)C[C@H]1CC[C@H]2[C@@H](COc3ccc(NC(=O)c4ccc5c(c4)OCO5)cc3C(=O)N2C)O1	-3	-1	-1.2
CN(C)CC(=O)N1[C@H](C(=O)Nc2nccs2)[C@@H](CO)[C@@H]2Cn3c(ccc(C4=CCCCC4)c3=O)[C@@H]21	-3	-6	2.6
CCCNC(=O)N[C@@H]1C=C[C@H](CC(=O)NCCc2ccccc2)O[C@H]1CO	-1	-2	0.4
CC(=O)N1CC[C@@H]2[C@@H](CO)Nc3ccc(-c4ccccc4)cc3[C@@H]21	8	2	5.8
O=C(Nc1cccc(F)c1)N1CCCCN2[C@H](CO)[C@@H](c3ccc(-c4ccncc4)cc3)[C@@H]2C1	?	nt	nt
CN(C)C(=O)C[C@@H]1C[C@H]2c3cc(NS(C)(=O)=O)ccc3O[C@H]2[C@@H](CO)O1	2	-5	7.4
CO[C@@H]1CN(C)C(=O)c2ccc(NS(C)(=O)=O)cc2OC[C@H](C)N(C(=O)C2CCCCC2)C[C@H]1C	2	-1	2.6
CCCC(=O)N1CC2(C1)CN(C(=O)CC1CC1)[C@H](CO)c1c2c2ccc(OC)cc2n1C	12	13	-0.4
COCC(=O)Nc1ccc2c(c1)C(=O)N(C)[C@@H]1CC[C@H](CC(=O)NCC(F)(F)F)O[C@@H]1CO2	4	0	3.4
COCC(=O)N1CCCCN2[C@@H](CO)[C@@H](c3ccc(-c4ccc(OC)cc4)cc3)[C@@H]2C1	26	29	-3.0
COc1cccc(C#Cc2ccc([C@@H]3[C@H](C#N)N(C(=O)c4ccccn4)[C@H]3CO)cc2)c1	-3	0	-2.6
O=C(C[C@@H]1CC[C@H]2[C@@H](COC[C@H](O)CN2Cc2ccc(Cl)cc2)O1)NCc1cccc(F)c1	?	nt	nt
O=C(C[C@H]1C[C@@H]2c3cc(NS(=O)(=O)c4ccc(F)cc4)ccc3O[C@@H]2[C@@H](CO)O1)N1CCCCC1	-4	3	-6.7
CN1C(=O)c2cc(NC(=O)c3ccc(C(F)(F)F)cc3)ccc2OC[C@@H]2O[C@H](CC(=O)NC3Cc4ccccc4C3)CC[C@H]21	4	-4	8.2
CCCN1[C@H](C(=O)N(C)C)[C@@H](CO)[C@@H]2Cn3c(ccc(-c4cccc(F)c4)c3=O)[C@@H]21	-4	-5	1.2
Cc1noc(C)c1NC(=O)Nc1ccc2c(c1)C(=O)N([C@@H](C)CO)C[C@H](C)[C@H](CN(C)C(=O)NC1CCCCC1)OCCCC[C@@H](C)O2	-4	-7	3.0
Cc1ccc(S(=O)(=O)NCC[C@@H]2CC[C@H](NC(=O)c3cccnc3)[C@@H](CO)O2)cc1	6	5	0.2
O=C(C[C@H]1C[C@@H]2c3cc(NC(=O)Cc4ccncc4)ccc3O[C@@H]2[C@H](CO)O1)NCc1ccc(-c2ccccc2)cc1	-10	-12	2.6
COc1ccc(S(=O)(=O)N[C@H]2C=C[C@@H](CC(=O)N3CCC(Cc4ccccc4)CC3)O[C@H]2CO)cc1	?	nt	nt
CCC(=O)N1CC[C@@H]2[C@H]1c1cc(-c3ccc(F)cc3)ccc1N(C)[C@H]2CO	18	6	12
CNC[C@H]1Oc2c(NC(=O)c3nc4ccccc4s3)cccc2C(=O)N([C@H](C)CO)C[C@@H]1C	1	2	-0.6
C[C@@H](NC(=O)[C@@H]1[C@@H](CO)[C@@H]2Cn3c(ccc(-c4ccncc4)c3=O)[C@H]1N2C)c1ccccc1	-6	-5	-1.5
N#C[C@@H]1[C@@H](c2ccc(-c3cccc(F)c3)cc2)[C@@H](CO)N1C(=O)NC1CCCC1	2	1	1.0
COc1cccc(-c2ccc3c(c2)[C@H]2[C@H](CCN2S(=O)(=O)c2ccccc2C)[C@@H](CO)N3C)c1	?	nt	nt
COc1ccc(C#Cc2ccc([C@@H]3[C@H]4CN(C(=O)c5ccncc5)CC(=O)N4[C@H]3CO)cc2)cc1	-9	8	-17
O=C(NCC[C@@H]1CC[C@@H](NC(=O)C2CCOCC2)[C@H](CO)O1)c1cc(Cl)cc(Cl)c1	-3	-5	2.4
COc1ccc(NC(=O)N2CC[C@@H]3[C@@H](CO)N(C)c4ccc(-c5ccccc5F)cc4[C@@H]32)cc1	20	18	1.6
Cc1ccc(CN2CC(=O)N3[C@@H](CO)[C@H](c4ccc(-c5ccccc5F)cc4)[C@@H]3C2)cc1	8	-3	11
O=C(Nc1ccccc1)N1CC(=O)N2[C@H](CO)[C@@H](c3ccc(-c4ccc(F)cc4)cc3)[C@H]2C1	6	8	-2.0
CCC(=O)N1CCCCN2[C@@H](CO)[C@H](c3ccc(-c4cccnc4)cc3)[C@@H]2C1	9	10	-1.1
C/C=C/c1ccc([C@H]2[C@@H](CN(C)C(=O)CC)N(C(=O)NC(C)C)[C@H]2CO)cc1	-3	-6	3.8
COc1ccc(C(=O)N2C[C@@H]3[C@H](c4ccccc42)[C@@H](CO)N3Cc2ccccc2)cc1	-3	0	-3.3
O=C(CN1CCOCC1)N1CCCCN2[C@H](CO)[C@H](c3ccc(/C=C/c4ccccc4)cc3)[C@H]2C1	5	-4	9.5
COc1cc(CN2CC3(CCN(S(=O)(=O)c4cccs4)CC3)c3c(n(C)c4cc(OC)ccc34)[C@H]2CO)cc(OC)c1	?	nt	nt
Cc1ccc(S(=O)(=O)N2CC[C@@H]3[C@H]2c2cc(-c4ccccc4F)ccc2N[C@@H]3CO)cc1	25	21	3.4
COC(=O)C[C@@H]1CC[C@H]2[C@@H](COc3ccc(NS(=O)(=O)c4ccc(C)cc4)cc3C(=O)N2C)O1	5	0	5.3
Cc1ccccc1S(=O)(=O)N1CCCCN2[C@@H](CO)[C@H](c3ccc(C#CCN(C)C)cc3)[C@@H]2C1	12	14	-2.2
C[C@@H]1CN([C@@H](C)CO)C(=O)c2cc(C3=CCCC3)cnc2O[C@@H]1CN(C)C(=O)c1ccc2c(c1)OCO2	-7	-8	1.5
COc1cccc(CN2CC3(C2)CN(C(=O)C2CC2)[C@@H](CO)c2[nH]c4cc(OC)ccc4c23)c1	?	nt	nt
CN(C)C(=O)c1ccc(-c2ccc3c(c2)[C@H]2[C@H](CCN2S(=O)(=O)c2ccccc2)[C@H](CO)N3)cc1	?	nt	nt
Cc1ccc(-c2ccc(C3[C@@H]4CN(Cc5ccccc5)C[C@H]3N4)cc2)cc1 (stereo not given in full)	6	18	-12
C[C@@H]1CN([C@H](C)CO)C(=O)c2c(c3ccccc3n2C)-c2ccccc2CO[C@@H]1CN(C)S(=O)(=O)c1ccc(Cl)cc1	?	nt	nt

Assay outcomes (PubChem BioAssay)
